High-throughput results (PubChem)
HNF4A DNA FP = change in binding of human HNF4A to DNA, primary screen, biochemical, fluorescence polarization, FITC-DNA; Hepatocyte nuclear factor 4-alpha (Homo sapiens), P41235; 1 h; activity change, % at 10 µM; hit rate 0.3% among 360,000; in the data active means activity change above about 30%, passing the limit was not always enough;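 further: controls were the assay level and a saturating level of protein; the project sought stronger binding though the title names inhibitors; some compounds called inactive have numbers as strong as hits; positive values seem to mean higher polarization but the record does not say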
Target sequence (P41235 whole entry, looked up): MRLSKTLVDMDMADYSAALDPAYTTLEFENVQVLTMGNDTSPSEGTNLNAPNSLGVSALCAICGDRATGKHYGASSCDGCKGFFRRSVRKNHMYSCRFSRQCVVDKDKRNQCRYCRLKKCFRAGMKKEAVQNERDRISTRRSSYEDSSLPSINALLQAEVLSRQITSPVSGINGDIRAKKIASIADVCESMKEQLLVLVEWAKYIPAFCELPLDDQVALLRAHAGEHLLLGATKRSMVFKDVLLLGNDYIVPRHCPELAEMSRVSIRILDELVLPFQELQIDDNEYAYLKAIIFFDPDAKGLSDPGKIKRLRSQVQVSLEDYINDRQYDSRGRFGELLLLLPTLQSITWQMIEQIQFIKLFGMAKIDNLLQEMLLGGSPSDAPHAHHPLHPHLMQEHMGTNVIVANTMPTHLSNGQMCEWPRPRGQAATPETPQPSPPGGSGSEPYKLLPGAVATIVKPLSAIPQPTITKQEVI
LANA-H2B inh = blockers of LANA interaction with H2A/H2B – biochemical, FP readout, HTS, primary screen; Protein LANA1 (Human herpesvirus 8 type P (isolate GK18)), Q9QR71; cell-free LANA-H2A/H2B peptide, fluorescence polarization; inhibition, % (concentration not given with the values); hit rate 0.6% among 320,000; AID 2629, 2010; in the data active means inhibition mostly above about 10%, no sharp cut-off; inactive means mostly below about 6.7%;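 further: stock transfer was 7.5 nL into about 10 µL; 0% = median of vehicle wells and 100% = median of positive control wells; one replicate is shown; the record names a cut of 25% in any replicate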
Vif A3G = inhibitors of Vif binding to APOBEC3G peptide, primary screen, biochemical, TR-FRET, GST-Vif 1-94, biotin-A3G peptide, dose response retest (AID 1117319) | Virion infectivity factor (Human immunodeficiency virus type 1 group M subtype B (isolate … | TR-FRET GST-Vif / biotin-A3G peptide binding; higher % means a stronger effect; test concentration not given here; strong numbers were not always called active | inhibition, %; hits with a dose series show IC50 in µM | hit rate 0.57% among 260,000;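 active means above the screen mean plus three standard deviations and confirmed in dose response; inconclusive means results disagree or hit not tested in dose response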;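 further: Vif residues 1-94 fused to GST binding biotinylated APOBEC3G peptide 110-148; 0% = full assay without inhibitor and 100% = GST in place of GST-Vif; retest series ran down from 100 µM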
Calb FLC = C. albicans growth inhibition with fluconazole, primary screen, CaCi-2 strain, Alamar Blue fluorescence; C. albicans CaCi-2 (fluconazole-resistant clinical isolate) + fluconazole, 48 h; growth inhibition, % (test concentration not listed); hit rate 0.57% among 300,000; AID 1979, 2009;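 active means most replicates above 75%; inconclusive means exactly half above 75%; inactive means most below 75%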;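 further: all wells also contain fluconazole at 8 µg/ml as a sub-toxic cotreatment; 0% = median of DMSO wells and 100% = median of geldanamycin control wells; wells of about 8 µL received 7.5 nL stock; the first replicate is given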
ALR H2O2 inh = inhibitors of human ALR sulfhydryl oxidase, primary screen, biochemical, H2O2 detection, HRP-luminol luminescence, single point; FAD-linked sulfhydryl oxidase ALR (Homo sapiens), P55789; purified ALR, DTT oxidation; inhibition, % (no concentration beside the values); hit rate 3.8% among 290,000; AID 485317, 2010;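 active means mean and each replicate at 75% or more; inconclusive means only one of the two met; inactive means neither met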;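 further: stock transfer was 7.5 nL into about 7.5 µL; 0% = neutral wells and 100% = wells with inactivated enzyme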
Target sequence (P55789 whole entry, looked up): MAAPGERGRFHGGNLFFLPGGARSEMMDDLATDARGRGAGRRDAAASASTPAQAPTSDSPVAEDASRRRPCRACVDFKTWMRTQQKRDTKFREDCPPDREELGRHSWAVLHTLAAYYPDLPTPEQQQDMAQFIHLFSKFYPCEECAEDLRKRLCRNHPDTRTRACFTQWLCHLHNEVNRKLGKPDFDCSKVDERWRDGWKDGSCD
Beta2AR agonist = beta2AR agonists driving receptor internalization, primary screen, cell-based, FAP fluorogen, flow cytometry; Am2.2-beta2AR cells; reference of the scale not given here; response, % (no concentration beside the values); AID 504454, 2011; hit rate 0.43% among 340,000; Beta-2 adrenergic receptor (Homo sapiens), P07550;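 active means response above a set limit, near 3 SD of response in nonfluorescent compounds, cut at about 42% in these data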;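 further: stock transfer was 100 nL into about 11 µL; a reference agonist was the positive control; negative values mostly stem from fluorescent compounds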
Target sequence (P07550 whole entry, looked up): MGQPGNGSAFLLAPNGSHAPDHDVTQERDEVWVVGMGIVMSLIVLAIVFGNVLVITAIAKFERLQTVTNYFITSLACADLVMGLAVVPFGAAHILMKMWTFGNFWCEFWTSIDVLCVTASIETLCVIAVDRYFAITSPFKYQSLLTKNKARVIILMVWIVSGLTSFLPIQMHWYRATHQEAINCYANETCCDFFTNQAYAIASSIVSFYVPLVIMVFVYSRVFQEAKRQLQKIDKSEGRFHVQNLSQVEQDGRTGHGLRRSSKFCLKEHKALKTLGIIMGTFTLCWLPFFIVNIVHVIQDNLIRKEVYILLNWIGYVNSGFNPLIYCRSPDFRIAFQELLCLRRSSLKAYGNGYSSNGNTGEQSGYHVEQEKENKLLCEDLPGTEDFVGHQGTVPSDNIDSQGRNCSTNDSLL
RanGTP-Imp inh = inhibitors of RanGTP-importin-beta interaction, primary screen, biochemical, FRET, CFP-Ran, YFP-importin-beta, homogeneous; Ran GTPase (GTP-bound) - importin-beta complex; cell-free CFP-Ran/YFP-importin-beta FRET ratio; inhibition, % (test concentration not listed); hit rate 1.1% among 300,000;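 active means most replicates above 15%; inconclusive means exactly half above 15%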;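 further: 0% = DMSO wells and 100% = Ran loaded with GDP instead of GTP; wells of about 40 µL received 100 nL stock; the first replicate is given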
The depositor's hits bear a star; ? = inconclusive; . = no result given; & = joins results of further samples. Rows are unselected. Share with any hit: about 6.3%.

SMILES	HNF4A DNA FP	LANA-H2B inh	Vif A3G	Calb FLC	ALR H2O2 inh	Beta2AR agonist	RanGTP-Imp inh
CSCCC(NC(=O)c1cccc([N+](=O)[O-])c1)C(=O)OCC(=O)N1CCCC1=O (configuration not stated)	1.5	2.4	-4%	-7	-2	1	0.9
COc1cc(NC(=S)NC2CC(C)(C)NC(C)(C)C2)c(OC)cc1Cl	-2.0	2.5	0%	4	0	8	?
C=C(C)CN=CC1(C)CCC(C)=CO1 (configuration not stated)	3.4	.	-2%	.	.	3	.
CC1(C)CC(=O)C(C(C2=C(O)CC(C)(C)CC2=O)c2cccs2)C(=O)C1 (configuration not stated)	-0.1	.	8%	1	.	68*	-2.3
CCCCNC(=O)/C(C#N)=C/c1cccnc1	-0.9	-0.9	.	-9	14	7	1.5
CSc1nccc(-c2c(-c3ccc(Cl)cc3)noc2C)n1	5.2	-4.3	0%	13	-14	-4	-3.3
O=C(COC(=O)/C=C/c1ccccc1Cl)NC1CCCCCC1	1.4	-0.5	0%	-4	7	1	0.9
Cc1cc(C)c2c(=O)c(/C=C3\NC(=S)NC3=O)coc2c1	.	6.3	1%	11	25	.	7.2
CCOC(=O)N1CCN(c2ccccc2O)CC1	4.3	4.1	10%	3	99*	13	-2.7
COc1cccc(C(=O)N/N=c2\oc3c(OC)cccc3cc2C(=O)NCc2ccccc2)c1	-0.1	7.3	0%	-3	0	1	-1.7
COc1ccccc1C(O)P(=O)(OC(C)C)c1ccc(N(C)C)cc1 (configuration not stated)	-1.9	5.7	16%	?	18	8	-1.8
COc1ccc(C2=COc3ccccc3C(=O)N2)cc1	0.1	-3.9	-10%	-30	69	-1	2.6
COC(=O)CC1NCCc2cc(OC)c(OC)cc21 (configuration not stated)	-2.9	-4.6	5%	2	-14	0	0.0
COc1ccccc1N1CC(C(=O)Nc2nnc(SCc3cccnc3)s2)CC1=O (configuration not stated)	-0.9	-3.6	-3%	-2	88*	8	0.9
O=C(COc1ccc(S(=O)(=O)NC2CCCC2)cc1)N1CCCCC1	5.3	8.3	.	-1	-3	2	1.8
COc1ccc(-c2cn3cccnc3n2)cc1NC(=O)CC(C)C	2.4	4.2	-6%	4	-13	-27	6.0
C/C(=N\NC(=O)c1cc2ccccc2cc1O)c1cccs1	2.5	0.4	.	48	.	13	-6.9
CC(C)CN(C(=O)CN(C)CC(=O)Nc1ccccc1C#N)c1c(N)n(CC(C)C)c(=O)[nH]c1=O	1.1	2.9	2%	.	-7	-6	.
CC(CCc1ccccc1)NC(=O)Cc1ccc(Br)cc1 (configuration not stated)	-0.3	3.2	.	-4	.	-9	-1.9
CC1(C)CC(=O)C=C(Nc2ccccc2)C1	-1.6	0.3	?	-6	4	5	12
Nc1nc2cc(S(=O)(=O)N3CCOCC3)ccc2o1	-5.8	-3.8	-2%	.	-4	-1	.
C#Cc1ccc(C(=O)Nc2cc(C(N)=O)ccc2N2CCOCC2)cc1	-0.3	3.1	0%	9	-10	-4	6.9
COc1cc(NC(=S)NCCc2ccccc2)c(OC)cc1NC(=O)CC(C)C	0.7	1.0	12%	-1	-33	-3	5.8
Cc1ccc(-c2nn(-c3ccccc3)cc2CO)cc1	1.2	3.2	-2%	0	5	-26	4.3
CCC(=O)Nc1ccc(-c2nnc(-c3ccccc3)o2)cc1	-5.9	-0.7	-8%	2	-4	-2	4.6
CCOC(=O)c1ccc(N2CC(O)=C(c3nc4ccccc4c(=O)[nH]3)C2=N)cc1	15	3.3	9%	4	8	-1	3.5
C=CCOc1ccc(/C=N/n2cncn2)cc1OC	2.3	3.0	-4%	-6	-8	-5	-1.6
COc1ccc(OC)c2c(C)cc(C)nc12	-0.1	4.0	-1%	1	-5	5	-2.0
COc1ccc2nc(SCC(C)=O)c(C#N)cc2c1	2.7	-8.3	4%	1	-7	2	5.7
Cc1ccc(S(=O)(=O)N2CCN(C3CCN(Cc4ccccc4)CC3)CC2)cc1	-1.1	.	4%	.	.	2	.
CCCCNC(=O)c1cn(CC)c2cc(N3CCN(C)CC3)c(F)cc2c1=O	-2.4	-5.4	-1%	-13	-2	-4	0.2
COc1cc(-c2ccccc2)nc2ccccc12	-2.2	-0.4	3%	-6	14	13	-2.0
COc1ccc(C(=O)N(c2ccc(OC)cc2)S(=O)(=O)c2cccs2)cc1	3.7	-0.3	18%	7	?	1	5.5
CC(C)Cc1nnc(NC(=O)C2CC(=O)N(Cc3ccccc3)C2)s1 (configuration not stated)	0.8	-2.8	.	-6	-9	6	1.3
Cc1c(NC(=O)C(Sc2ccccc2)c2ccccc2)cccc1[N+](=O)[O-] (configuration not stated)	-1.2	-4.1	-2%	-21	4	-11	-0.3
Cn1nc(C(=O)NC2CCCCC2)c2ccccc2c1=O	-2.2	-0.2	0%	22	-20	0	1.3
CN(CC(=O)N1CCc2[nH]c3ccc(F)cc3c2C1)CC1OCCO1	.	-2.1	-2%	1	11	.	-12
COc1ccc(-c2nnn(CC(=O)N(CC(=O)NCCC(C)C)Cc3cccs3)n2)cc1OC	2.8	-8.6	2%&8%	0	-5	4	?
COC(=O)[C@]1(CC(C)C)N[C@H](c2ccc(SC3CCCCC3)cc2)[C@@H]2C(=O)N(C)C(=O)[C@@H]21	-2.6	3.9	.	.	-4	31	.
Cc1cc(=O)[nH]c(NCc2ccccc2)n1	-0.3	5.2	-5%	-4	-4	0	5.7
COC(=O)CC(c1ccc(C#N)cc1)n1c(C)ccc1C (configuration not stated)	3.6	4.5	-5%	7	.	5	-1.3
O=C(CNC(=O)c1ccc(Cl)cc1)Nc1ccc(S(=O)(=O)Nc2ncccn2)cc1	-0.1	0.1	-3%	-6	.	23	-3.6
CC(C)CCNC(=O)CN(CC1CCCO1)C(=O)CCC(=O)Nc1nccs1 (configuration not stated)	-1.8	-3.7	-3%	-17	-1	-9	-0.7
CC(=O)NC(=O)c1ccc(-c2ccc(Cl)cc2)o1	3.2	-0.1	-3%	11	-18	-8	-3.6
Cc1ccc(-n2nc3cc(Cl)c(NC(=O)c4ccco4)cc3n2)cc1	-1.0	-5.4	-6%	6	-17	7	-2.9
Cc1ccc2[nH]cc(/C=C/c3cc[n+](C)cc3)c2c1	95	-228	.	3	98*	-913	-276
C/C(=N\Nc1nc(C(=O)O)cs1)c1ccccc1	.	-3.6	.	?	20	.	4.2
CC(C)=C[C@@H]1C[C@H](C)[C@H]2CC[C@H](C)c3c(O)c(O)c(C)c1c32	0.2	2.0	.	.	-18	2	.
CC(C)c1ccc(NC(=O)CCNC(=O)N2CC(=O)Nc3ccccc32)cc1	-0.8	-1.3	0%	-1	-4	-4	0.2
C/C(CC(=O)Nc1cccc(Cl)c1Cl)=N\NC(=O)c1ccccc1Br	33	-0.1	.	-2	.	-2	-1.7
COc1ccc(Nc2nnc(SCC(=O)c3cc4ccccc4o3)s2)cc1	8.4	4.5	?	3	16	9	-2.8
CCOc1ccc(NC(=O)COC(=O)c2ccc3c(c2)OCCO3)cc1	2.6	0.1	.	.	-3	-1	.
N#Cc1c(NC(=O)C2CC(Cl)=CCC2C(=O)O)sc2c1CCCC2 (configuration not stated)	1.8	2.0	5%	13	6	0	-1.3
O=[N+]([O-])c1c(NCCCO)cc(N2CCN(Cc3ccc4c(c3)OCO4)CC2)c2nonc12	0.2	2.1	.	-24	0	-4	5.5
CC(C)NC(=O)c1ccc(C(C)C)cc1	-1.7	-13	7%	-2	-7	-10	0.6
CN(C)C(=O)CCc1ccc2c3c([nH]c2c1)[C@]1(CCC2CCCC2)[C@@H](C(=O)N2CCOCC2)C[C@H](CC(=O)NCCC2=CCCCC2)C(=O)N1CC3	-2.5	.	4%	.	.	0	.
CC1(C)Cc2cccc(C(=O)Nc3ccc(Cl)cc3)c2O1	5.3	-12	-17%	?	3	-5	6.0
CCn1nc(C(=O)Nc2cc(Cl)ccc2-n2cncn2)c2ccccc2c1=O	40	-2.7	-6%	-6	-27	-12	2.9
O=C(NCCCN1CCCC1)c1cc(Sc2ccc(F)cc2)nc2ccccc12	0.5	0.7	-12%	0	-4	3	-1.3
CC(=O)Nc1ccc(NC(=O)C/C(C)=N/NC(=O)C(=O)N2CCCC2)cc1	-2.0	-4.7	8%	-1	-2	4	5.9
The list continues.
SMILES	HNF4A DNA FP	LANA-H2B inh	Vif A3G	Calb FLC	ALR H2O2 inh	Beta2AR agonist	RanGTP-Imp inh
O=C(CNC(=O)c1ccccc1F)OCC(=O)c1ccc(Cl)s1	-1.8	2.1	.	-3	-5	0	-3.2
C=CCNC(=O)c1cccc2c1C(=O)c1ccc(N3CCOCC3)cc1S2(=O)=O	27	3.9	.	.	-2	-1	.
COc1ccc(Cl)cc1C(=O)N1CCC2(CC1)CC(=O)c1ccccc1O2	0.0	4.1	7%	-3	0	1	3.8
COc1ccccc1C(=O)NCC(=O)NCCc1ccc(Cl)cc1	2.5	-0.6	.	-5	-6	-1	1.2
CCC(NC(=O)C1CCCO1)c1ccccc1 (configuration not stated)	2.6	-4.1	.	-8	-7	-4	?
COc1ccc(/C=C2\SC(=S)N(CCC(=O)N3CCOCC3)C2=O)cc1	1.2	0.1	.	4	-11	2	-0.5
CN(CC(=O)Nc1c(Cl)cccc1Cl)C(=O)c1ccccc1Cc1ccccc1	2.9	1.2	6%	-4	3	-4	.
CN(C)/C=C/C(=O)c1ccc(Cl)s1	-1.8	-3.3	6%	1	7	-7	4.3
COC(=O)[C@@H]1C[C@@]2(O)[C@H](O)[C@H](O)[C@H](O)C[C@H]2N1Cc1ccccc1OS(=O)(=O)c1ccc(C)cc1	0.3	0.8	.	-10	.	0	1.3
CC(C)(C)C(=O)N1CCN(C(c2ccccc2)c2ccccc2)CC1	-1.7	0.6	-7%	-8	-2	-3	-2.2
CCn1nnc2cc(C(=O)Nc3cc(Cl)ccc3C)ccc21	7.6	6.6	-7%	.	-6	2	.
Cc1ccccc1NC(=O)c1cccc(C(=O)Nc2ccccc2C)n1	8.6	-0.9	.	-5	-16	10	-1.4
CCCCOc1ncnc2c1[nH]c1ccc(C)cc12	-0.8	0.7	0%	7	-8	.	0.7
O=C(C1CCCN(S(=O)(=O)c2cccc3nsnc23)C1)N1CCc2ccccc2C1 (configuration not stated)	4.7	7.3	-7%	-6	-12	-11	-4.6
OC1(c2cccc(C(F)(F)F)c2)CCN(c2ncnc3c2[nH]c2ccccc23)CC1	1.8	3.8	5%	-34	-10	-17	10
COc1ccc(-c2csc(NC(C)c3nc4cc(C(F)(F)F)ccc4n3CCOCCO)n2)cc1 (configuration not stated)	0.1	-2.4	.	-6	10	2	-3.2
CCOC(=O)C1CCN(C(=O)CSc2ccccc2)CC1	1.3	0.1	13%	12	-4	1	-3.1
CC(C)(C)c1cc(NC(=O)COc2ccc(Br)cc2)n(-c2ccccc2)n1	-1.3	3.1	-2%	-23	0	-3	-0.4
COc1ccc(CCCc2n[nH]c(=S)o2)cc1C	-0.8	2.9	9%	0	.	2	-8.7
CC(C)CNC(=O)[C@H]1N2C(=O)c3ccccc3C2SC1(C)C (some centres not stated)	2.0	-0.6	5%	-2	-8	-13	-3.3
Cc1ccc(O)c(C2=Nc3ccccc3N=C(c3ccc([N+](=O)[O-])cc3)C2)c1	6.2	1.0	.	12	-6	-3	-7.6
